# High-throughput results: PubChem BioAssay, Johns Hopkins Ion Channel Center
# KCNQ2 inh: KCNQ2 potassium channel inhibitors, primary screen, cell-based, CHO-K1, FluxOR thallium flux, B-score (AID 2156) | B-score at 10 µM | 310,000 tested, 1.1% active | O88943 | 20 min; active compounds read low; only compounds with negative scores are shown here; some inactives read as strong as hits;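 active = fluorescence ratio B-score at most minus 3 library SDs, with starting brightness B-score within 2 library SDs, cut at about -5.5 in these data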
# Target sequence (O88943 whole entry, looked up): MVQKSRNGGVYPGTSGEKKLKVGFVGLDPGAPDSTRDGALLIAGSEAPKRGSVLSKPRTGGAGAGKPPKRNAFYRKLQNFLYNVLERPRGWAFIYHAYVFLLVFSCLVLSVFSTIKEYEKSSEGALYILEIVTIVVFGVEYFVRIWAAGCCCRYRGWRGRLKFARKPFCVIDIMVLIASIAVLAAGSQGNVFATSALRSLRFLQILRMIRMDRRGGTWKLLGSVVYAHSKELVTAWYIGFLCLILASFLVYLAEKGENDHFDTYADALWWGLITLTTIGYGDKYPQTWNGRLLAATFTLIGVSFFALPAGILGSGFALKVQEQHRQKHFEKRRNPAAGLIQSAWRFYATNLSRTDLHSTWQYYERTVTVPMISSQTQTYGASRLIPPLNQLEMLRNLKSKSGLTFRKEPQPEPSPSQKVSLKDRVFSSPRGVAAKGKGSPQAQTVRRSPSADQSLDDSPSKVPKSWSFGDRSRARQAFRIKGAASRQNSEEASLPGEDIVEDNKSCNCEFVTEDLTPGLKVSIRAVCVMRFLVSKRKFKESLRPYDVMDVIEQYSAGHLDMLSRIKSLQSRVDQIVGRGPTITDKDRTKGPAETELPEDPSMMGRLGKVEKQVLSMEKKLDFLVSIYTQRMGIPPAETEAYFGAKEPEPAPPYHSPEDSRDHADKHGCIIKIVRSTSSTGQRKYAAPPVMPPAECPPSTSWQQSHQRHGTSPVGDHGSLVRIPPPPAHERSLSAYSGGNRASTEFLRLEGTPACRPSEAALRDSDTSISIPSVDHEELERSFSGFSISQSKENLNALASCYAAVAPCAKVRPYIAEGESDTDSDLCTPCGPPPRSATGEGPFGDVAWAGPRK
# KCNQ2 inh baseline: further read-out of KCNQ2 inh, marked with its call; B-score; measured here: initial fluorescence intensity artifact check;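 brightness before thallium and not channel activity; 0 = typical well and far values either way flag optical interference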
# Active calls of the source: *; i = inactive. This is a subset. The share of hits here may be higher or lower than overall.
# Below each compound: KCNQ2 inh, KCNQ2 inh baseline
> Cc1ccc(N2C(=O)CC(N3CCN(C4CCc5ccccc5C4)CC3)C2=O)cc1 (stereo unspecified)
    i, -0.65
> Cc1nn(-c2ccccc2)c(N2CCCC2)c1/C=N/NC(=O)c1cc(-c2ccccc2)nc2ccccc12
    i, -1.4
> Cc1ccc(CSCCNC(=O)c2ccc(C)cc2)cc1
    i, 1.2
> CCOc1ccc(-n2cc(C(=O)Nc3cccc(OC)c3)c3cc(OC)c(OC)cc3c2=O)cc1
    i, 1.8
> O=C(O)c1ccccc1C1=Nc2ccc(O)cc2Oc2cc(O)ccc21
    i, 5.9
> CCCCCCCCCC(=O)NNC(=O)c1c(O)c2ccccc2n(CC)c1=O
    i, -0.01
> CCCOc1ccc(N2CC(C(=O)NC(C)C)CC2=O)cc1 (stereo unspecified)
    i, 2.4
> O=C1Nc2cccnc2N(C(=O)CCl)c2ccccc21
    i, 2.4
> O=C(COC(=O)C1CC(=O)N(Cc2ccccc2)C1)Nc1ccccc1F (stereo unspecified)
    i, -0.01
> Cc1c(Cl)cnc(NC(=O)COC(=O)c2ccc(S(=O)(=O)NCc3ccco3)cc2)c1Cl
    i, 4.2
> Cn1nnnc1SCC(=O)NCc1cc([N+](=O)[O-])ccc1O
    i, 0.09
> O=C(Cc1coc2ccc3ccccc3c12)Nc1nccs1
    i, -0.74
> CCNC(=O)CC1C(=O)N(c2ccc(F)cc2)C(=S)N1CCc1ccncc1 (stereo unspecified)
    i, 0.49
> CC1CCN(C(c2ccc(N(C)C)cc2)c2nnnn2C(C)(C)C)CC1 (stereo unspecified)
    i, -1.2
> COc1ccc(C(=O)NCc2ccc3c(c2)cc(C)n3C)cc1OC
    i, -0.04
> O=C(Nc1ccccc1N1CCOCC1)c1cc(Br)c(Br)s1
    i, -0.67
> OCC[C@@H]1C[C@H](O)[C@@H](O)[C@]2(Cc3ccccc3CO2)O1
    i, 1.1
> CC/C(=N\O)C(C)(C)/[N+]([O-])=C/c1ccc(Br)cc1
    i, -0.04
> CNC(=O)COc1cccc(C(=O)NCc2ccccc2)c1
    i, 0.03
> CCn1cc2nc(SCC(=O)Nc3ccccc3F)n(Cc3ccccc3)c(=O)c2n1
    i, -0.7
> COCCNC(=O)C(c1cccc(OC)c1)N(Cc1cccs1)C(=O)Cn1nnc2ccccc21 (stereo unspecified)
    i, -1.2
> COc1ccc(C(=O)Nc2ccc(S(=O)(=O)Nc3onc(C)c3C)cc2)c(OC)c1
    i, 0.51
> O=C1c2ccccc2C(=O)N1CCc1csc(-c2cccc(F)c2)n1
    i, -3
> CCCCN(C(=O)Cn1nnc2ccccc21)C(C(=O)NCCOC)c1ccc(OC)cc1OC (stereo unspecified)
    i, 0.97
> Cc1cc(Cl)ccc1NC(=O)C1COc2ccccc2O1 (stereo unspecified)
    i, 1.5
> CC(=O)c1cc(-c2ccc(F)cc2)n(CC(=O)NCc2cccs2)c1C
    i, -2.2
> NC(=O)Cc1ccc(C(=O)c2ccccc2)s1
    i, -0.03
> COc1cccc(-c2nc(N3CC(C)CC(C)C3)c3ccccc3n2)c1O (stereo unspecified)
    i, -1.7
> C=CCN1C(=O)C(CC(=O)Nc2ccccc2)N(Cc2ccccn2)C1=S (stereo unspecified)
    i, 1.7
> CCCNC(=O)c1ccccc1NC(=O)COc1ccc(OC)cc1
    i, 0.01
> COc1ccc(/C=N/NC(=O)C(C)n2cnc3ccccc3c2=O)cc1 (stereo unspecified)
    i, 2.2
> Cc1cc(NCCC(C)C)n2nc(C)c(-c3ccccc3)c2n1
    i, -0.08
> CCCCCN(C(=O)CCC(=O)OCc1cccc(C)c1)c1c(N)n(CCCC)c(=O)[nH]c1=O
    i, 2
> CCc1ccc(CN2C(=O)c3ccccc3C2C(=O)NCc2cccnc2)cc1 (stereo unspecified)
    i, -0.2
> CCc1ccccc1NC(=S)N(CCN(C)C)C(C)c1cccnc1 (stereo unspecified)
    i, 0.68
> CCOC(=O)c1nn(-c2ccccc2)c2nc(Nc3ccccc3)cc(=O)n12
    i, -0.68
> Cc1ccnc(NC(=O)c2ccc(S(=O)(=O)N3CCCCCC3)cc2)c1
    i, 0.18
> COc1ccc(C(=O)NCCCc2ccccc2)cc1
    i, -0.08
> NS(=O)(=O)c1cccc(NC(=O)c2cncc(Br)c2)c1
    i, -0.23
> O=C(c1ccc(CSCc2ccccc2F)o1)N1CCN(c2ccc(N3CCOCC3)nn2)CC1
    i, -0.55
> COCCNC(=O)[C@H]1N2C(=O)c3c(ccc(OC)c3OC)C2SC1(C)C (stereo partly specified)
    i, 0.21
> O=C(Cc1ncc(C(F)(F)F)cc1Cl)N1CCN(c2ccccn2)CC1
    i, 3.9
> Cc1ccc(-c2sc(-c3ccccc3)nc2CC(=O)Nc2ccccc2F)cc1
    i, -0.4
> COCCCNc1nc2ccccc2nc1NS(=O)(=O)c1ccc(OC)cc1
    i, 0.34
> CCC(=O)Nc1cc(=O)[nH]c2nc(-c3ccc(Cl)cc3)nn12
    i, 0.73
> COc1cccc(C2CC(c3cccc(OC)c3)n3nc(N)nc3N2)c1 (stereo unspecified)
    i, 0.23
> Nc1ccccc1SC(C[N+](=O)[O-])c1ccccc1 (stereo unspecified)
    -7.6*, 0.63*
> COc1ccc(C(=O)Cn2c(C(=O)/C=C/c3ccccc3)nc3ccccc32)cc1
    i, -1.1
> Cc1ccccc1NC(=O)c1ccccc1-c1ccccc1
    i, 0.03
> CC(=O)Nc1ccc(NS(=O)(=O)c2cc([N+](=O)[O-])ccc2C)cc1
    i, 0.03
> COC(=O)CSc1nnc(-c2ccc(NS(=O)(=O)c3ccccc3)cc2)o1
    -6.2*, 1.4*
> S=C1CCC(c2ccc(Br)cc2)=NN1c1ccccc1
    i, 0.91
> Cc1cccc(C)c1OCCNC(=O)OCc1ccccc1
    -6.9*, -0.91*
> CC(=O)NC(Cc1ccccc1)C(=O)OCC(=O)c1ccc(F)cc1 (stereo unspecified)
    i, 1.7
> Cc1ccc(-c2ccc(/C=C(\C#N)C(N)=S)n2C)cc1
    i, -0.11
> Cc1ccc2nc(SCC(=O)c3ccccc3)nc(=O)n2c1
    i, 0.05
> Cc1cc(C(=O)NCCCN2CC(C)CC(C)C2)n(-c2ccccc2)n1 (stereo unspecified)
    i, 1.1
> COc1ccc(CNC(=O)N[C@@H](CC(C)C)C(=O)O)cc1OC
    i, -1.4
> CC(=O)Nc1sc(C)c(C)c1C(=O)OC(C)C
    i, 0.29
> O=C(Cn1ncc2c(=O)oc3ccccc3c21)N(Cc1ccco1)C1CCCCC1
    i, 0.03

# The list continues:
# Below each compound: KCNQ2 inh, KCNQ2 inh baseline
> COc1ccc(-c2[nH]ncc2CN2CCCO2)c(F)c1
    i, 1.8
> COc1ccc(C)cc1NC(=O)c1ccc(S(=O)(=O)N2CCCCC2)cc1
    i, 1.9
> Cc1csc2nc(CNC(=O)c3ccco3)cn12
    i, -2.2
> CCCOc1ccc(/C=C/C(=O)Nc2ccc([N+](=O)[O-])cc2)cc1
    i, -0.4
> Cc1ccc(N2/C(=N/c3nc(C)cc(C)n3)NC(=O)CC2C(=O)O)cc1 (stereo unspecified)
    i, 2.2
> Cc1cc(C)c(NC(=O)c2oc3ccccc3c2COc2ccccc2)c(C)c1
    i, 0.55
> O=C(/C=C/c1cccc(F)c1)OCC(=O)N1CCCc2ccccc21
    i, -0.89
> COc1cccc(CNC(=O)c2cccnc2Sc2ccccc2)c1
    i, -0.55
> COc1ccccc1NS(=O)(=O)c1cccc2nsnc12
    i, 0.52
> COc1ccc(S(=O)(=O)NCCSc2ccc(Cl)cc2)cc1OC
    i, 1.8
> Oc1ccccc1Nc1nc(NCC2CCCO2)c2ccccc2n1 (stereo unspecified)
    i, -0.1
> COc1cc(/C=C2\CCC/C(=C\c3ccc(O)c(OC)c3)C2=O)ccc1O
    i, -1.8
> O=C(NC1CCCc2c1cnn2-c1ccc(F)cc1F)c1ccccn1 (stereo unspecified)
    i, -0.94
> COc1cc(S(=O)(=O)N(Cc2cccs2)CC2CCCO2)ccc1-n1cnnn1 (stereo unspecified)
    i, 0.07
> Cc1cc(NC(=O)c2cccs2)ncc1NC(=O)C(C)C
    i, 0.85
> CN(C)CCCN1CC(C(=O)O)CC1=O (stereo unspecified)
    i, -0.22
> Cc1ccc(C2=NN(C(=O)c3cccs3)C(c3ccccc3O)C2)cc1 (stereo unspecified)
    i, 0.61
> O=C(NNC(=O)C1CC1c1ccccc1)c1ccccc1F (stereo unspecified)
    i, 0.86
> O=C(N/N=C/c1ccccc1F)c1ccccc1OCc1ccccc1
    i, -0.31
> CCOc1ccc2nnc(-c3ccc(Br)cc3)n2n1
    i, 0.25
> CCOC(=O)N1CCN(c2nc(C(F)(F)F)nc3c(C)cc(C)cc23)CC1
    i, -0.28
> CC(C)N1CCN(C2CSCCSC2)CC1CCO (stereo unspecified)
    i, 0.67
> Cc1cccn2c(=O)nc(SCC(=O)N3CCN(c4ccccc4)CC3)nc12
    i, -0.8
> COc1cccc(NC(=O)Cc2csc(NC(=O)Nc3ccccc3OC)n2)c1
    i, 0.01
> COc1cc([C@@H]2[C@H]3CNCC=C3C(C#N)=C(N)C2(C#N)C#N)ccc1OC(C)C
    i, 2.7
> CCN(CC)S(=O)(=O)c1ccc(N2CCCC2)c(NS(=O)(=O)c2ccc([N+](=O)[O-])cc2)c1
    i, 0.07
> Cc1ccc(/C=N/NC(=O)c2nnn(-c3nonc3N)c2CSc2ccccc2)cc1
    i, 0.32
> FC(F)(F)c1ccccc1CN1CCCC(N2CCN(c3ccccc3)CC2)C1 (stereo unspecified)
    i, 0.16
> Cc1ccc(C(=O)N/N=C\C=C\c2ccc(Br)cc2)cn1
    i, 0.62
> COc1ccccc1OCC(=O)N(Cc1nnc(-c2ccccc2Cl)o1)C1CC1
    i, 0.76

# A portion from the list above, as a working copy:
# Below each compound: KCNQ2 inh, KCNQ2 inh baseline
> COc1cc([C@@H]2[C@H]3CNCC=C3C(C#N)=C(N)C2(C#N)C#N)ccc1OC(C)C
    i, 2.7
> CCN(CC)S(=O)(=O)c1ccc(N2CCCC2)c(NS(=O)(=O)c2ccc([N+](=O)[O-])cc2)c1
    i, 0.07
> Cc1ccc(/C=N/NC(=O)c2nnn(-c3nonc3N)c2CSc2ccccc2)cc1
    i, 0.32
> FC(F)(F)c1ccccc1CN1CCCC(N2CCN(c3ccccc3)CC2)C1 (stereo unspecified)
    i, 0.16
> Cc1ccc(C(=O)N/N=C\C=C\c2ccc(Br)cc2)cn1
    i, 0.62
> COc1ccccc1OCC(=O)N(Cc1nnc(-c2ccccc2Cl)o1)C1CC1
    i, 0.76

# Whole records as entered above. Order of screens: KCNQ2 inh	KCNQ2 inh baseline
# Shown for CN(C)CCCN1CC(C(=O)O)CC1=O (stereo unspecified) : i	-0.22
# Shown for COc1cccc(CNC(=O)c2cccnc2Sc2ccccc2)c1 : i	-0.55
# Shown for COc1ccc(-c2[nH]ncc2CN2CCCO2)c(F)c1 : i	1.8
# Shown for FC(F)(F)c1ccccc1CN1CCCC(N2CCN(c3ccccc3)CC2)C1 (stereo unspecified) : i	0.16
# Shown for COc1ccccc1OCC(=O)N(Cc1nnc(-c2ccccc2Cl)o1)C1CC1 : i	0.76

# (listing goes on)
# Below each compound: KCNQ2 inh, KCNQ2 inh baseline
> N#Cc1c(N)sc2c1CCN(C(=O)OCc1ccccc1)C2
    i, 2.5
> COc1cc2c(cc1OC)CN(C(=O)CN1CCN(S(=O)(=O)c3ccc(C)c(C)c3)CC1)CC2
    i, 1.3
> Cc1nn(C)cc1CN(C)C(=O)c1sc2cccc(Cl)c2c1Cl
    i, 1
> CCCCNc1nc2c(c(=O)[nH]c(=O)n2C)n1CCOc1ccccc1
    i, 0.05
> Cc1cccc(N2C(=S)NC3c4ccccc4OC2(C)C3C(=O)N(C)C)c1 (stereo unspecified)
    i, -0.42
> CCCC(c1nnnn1CC1CCCO1)N1CCN(c2cc(Cl)ccc2C)CC1 (stereo unspecified)
    i, -0.24
> Cc1cc(C)cc(OCC(=O)Nc2cccc(-c3nnc(-c4ccco4)o3)c2)c1
    i, -1.9
> COc1ccc(C(=O)N2CCC(n3c(C)nc4cc(F)ccc43)CC2)cc1
    i, 0.13
> CCC(C)/C(C)=N/NC(=O)c1ccccc1OCCOc1ccccc1 (stereo unspecified)
    i, 0.07
> COc1ccc(-c2cc(C(F)(F)F)n3nc(C)cc3n2)cc1
    i, -1.9
> COC(=O)c1ccc(COC(=O)C2CCN(S(=O)(=O)c3c(Cl)cccc3Cl)CC2)o1
    i, 0.59
> O=C(N/N=C/c1cccnc1)c1cccs1
    i, -0.94
> Cc1ccc(C(=O)CSc2nnc(CNc3ccc(C)cc3C)o2)cc1
    i, -0.76
> CCCSc1nnc(-c2c[nH]c3ccccc23)n1C
    i, -0.67
> CC(C)NC(=O)c1cc2c(=O)n3ccccc3nc2s1
    i, -0.49
> Cc1cc(C(=O)CSc2nnnn2C)c(C)n1Cc1ccco1
    i, -1.1
> COc1ccc(C(=O)c2ccc(OC)c3cccc(O)c23)cc1OC
    i, 0.78
> COc1ccc(CC(=O)NCCN2CCCC2)cc1
    i, -0.49
> Cc1ccc2oc(-c3cccc(NC(=S)NC(=O)/C=C/c4ccco4)c3)nc2c1
    i, 3
> CCC(Sc1nc2ccncc2[nH]1)C(=O)Nc1cc(Cl)ccc1C (stereo unspecified)
    i, 2.3
> COc1ccc(N2CCN(Cc3cc(=O)oc4ccc5ccccc5c34)CC2)cc1
    i, -0.64
> COc1cc(/C=C(\C#N)c2nc3c(s2)CCCC3)ccc1O
    i, 25
> CCCC1CCC(C2=N/C(=C\c3ccc(OC)c(OC)c3)C(=O)O2)CC1 (stereo unspecified)
    i, -0.09
> CCOC(=O)c1c(NC(=O)COc2ncnc3ccccc23)sc(C)c1CC
    i, -0.06
> CCCCC1=CC2=CC(=O)C(C)(OC(=O)CC)C(=O)C2=CN1CCN1CCOCC1 (stereo unspecified)
    i, 2.5
> Cc1c(C(=O)N2CCOCC2)c(S(=O)(=O)Nc2ccc(F)cc2)c(C)n1C
    i, 2.1
> CC(=O)c1sc(Nc2cccc3ccccc23)nc1C
    i, 0.19
> O=c1c2c(nc3cc(-c4cccc(F)c4)[nH]n13)CCC2
    i, 0.2
